Hsc70 = Hsc70 inhibitors, probe displacement, primary screen, biochemical, fluorescence polarization (AID 568); Hsc70 fluorescence polarization, probe displacement; higher % means a stronger effect; strong numbers were not always called active; 83,000 tested, under 10 active; displacement, % at 20 µM, or IC50 in µM where a hit was titrated;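 active = displacement above 50% without optical interference and an IC50 on retest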;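 also: ATPase domain with a fluorescein-tagged ATP probe; 0% = vehicle and 100% = excess ADP; read after one hour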
MT1-MMP reporter = MT1-MMP gene expression reporter suppression – cell-based, luciferase reporter, luminescence (AID 618) | MT1-MMP promoter luciferase reporter cells, luminescence | calls from a first round at 10 µM; hits with a dose series show EC50 in µM | 0.62% of 87,000 active;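 active = over half of the reporter light lost at 10 µM or EC50 under 50 µM; inactive = the rest and hits that failed the dose series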;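 also: actives suppress MT1-MMP promoter-driven transcription so potencies describe inhibitors; HT1080 fibrosarcoma cells; overnight exposure; toxic or luciferase-blocking compounds were not removed from the actives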
WNV NS2B-NS3 inh = blocks West Nile virus NS2B-NS3 protease activity; AID 577; 0.18% of 65,000 active; P06935; z-score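 (tested at a level between 10 and 100 µM)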; WNV NS2B-NS3 protease, fluorogenic substrate Ex360/Em465; stronger effect = lower value;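 active = z-score at -3 or under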;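 also: score is relative to mean and spread of the compound wells of a plate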
Target sequence (P06935 1371-1501 limits assumed): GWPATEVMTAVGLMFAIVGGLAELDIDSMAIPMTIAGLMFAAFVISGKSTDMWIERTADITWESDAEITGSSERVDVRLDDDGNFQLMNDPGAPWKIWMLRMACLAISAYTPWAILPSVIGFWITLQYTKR
Target sequence (P06935 1502-1679 limits assumed): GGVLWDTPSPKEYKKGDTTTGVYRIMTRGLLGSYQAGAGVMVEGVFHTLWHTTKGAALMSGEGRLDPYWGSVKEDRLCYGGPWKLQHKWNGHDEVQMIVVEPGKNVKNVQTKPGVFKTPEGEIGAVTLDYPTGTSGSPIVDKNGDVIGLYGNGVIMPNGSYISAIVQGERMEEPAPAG
* = called active by the depositor; i = inactive; . = not tested or not shown. Some of the compounds tested. The share of hits here may be higher or lower than overall.

Order of values – Hsc70, MT1-MMP reporter, WNV NS2B-NS3 inh
CC(=O)c1cccc(OCC(O)CN2CC=C(c3ccccc3)CC2)c1 (stereo not drawn)
→ 7.5%, i, -1.4
CC1CCCCN1CC(=O)c1ccc2cc[nH]c2c1 (stereo not drawn)
→ -1.5%, i, -1.11
COC(=O)c1ccc(N2C(=O)CC(N3CCC(n4c(=O)[nH]c5ccccc54)CC3)C2=O)cc1 (stereo not drawn)
→ -3.0%, i, 3
Cc1nc2ccccc2c(=O)n1-c1cccc(O)c1
→ -4.8%, i, -0.71
CN1CC[C@@]23CCCC[C@@H]2[C@@H]1Cc1ccc(O)cc13
→ -20.2%, i, -0.19
O=c1[nH]c(=O)n(Cc2ccccc2)c(O)c1C=Nc1ccc(CN2CCOCC2)cc1
→ -7.3%, i, -0.31
CC1=C(C(=O)Nc2ccccc2)SCCO1
→ 4.4%, i, -0.81
NC1CCCCC1N=Cc1c(O)n(Cc2ccc(F)cc2)c(=O)[nH]c1=O (stereo not drawn)
→ 1.8%, i, -0.74
COC(=O)C(O)(c1ccc(NC(=O)c2ccco2)c(OC)c1)C(F)(F)F (stereo not drawn)
→ -7.2%, i, -0.37
CCC(=NC1CCN(Cc2ccccc2)CC1)c1c(O)[nH]c(=O)[nH]c1=O
→ 4.7%, i, 1.02
Nc1c(C(=O)NC2CCCC2)c2nc3ccccc3nc2n1CC1CCCO1 (stereo not drawn)
→ -7.3%, i, 1.82
CCCC(=O)C1C(=O)NC(=O)NC1=O
→ 1.9%, i, 0.2
COc1cccc(CNC2CN3CCC2CC3)c1OC (stereo not drawn)
→ -2.1%, i, -0.76
CC(C)NS(=O)(=O)c1ccc(OCC(=O)N2CCN(Cc3ccccc3)CC2)cc1
→ -5.9%, i, -0.05
O=C(COc1ccc(S(=O)(=O)N2CCOCC2)cc1)N1CCN(Cc2ccc3c(c2)OCO3)CC1
→ 3.8%, i, .
CCCCN1C(=O)NC(=O)C2(Cc3ccccc3N3CCOCC32)C1=O (stereo not drawn)
→ -6.0%, i, 0.41
C=CCn1c(O)c(C(CC)=Nc2ccccc2NC(C)=O)c(=O)[nH]c1=O
→ -2.8%, i, 0.74
O=C(Nc1cccc(OC(=O)N2CCCCC2)c1)N1CCCCC1
→ -1.5%, i, -0.03
O=P1(Nc2ccc(F)cc2)COc2ccccc2OC1
→ 3.4%, i, 0.44
Cc1nn(-c2ccccc2)c2c1C(c1ccc3c(c1)OCO3)SCC(=O)N2 (stereo not drawn)
→ 1.4%, i, -0.9
CC(=O)NC(=O)NC(C)Cc1ccccc1 (stereo not drawn)
→ 1.1%, i, .
Cc1ccc2nsnc2c1-n1c(C)nc2ccccc2c1=O
→ -6.6%, i, -0.21
CN(C)CP(=O)(Nc1ccccc1)N(C)C (stereo not drawn)
→ 5.4%, i, 0.4
Nc1c(C(=O)NCc2ccco2)c2nc3ccccc3nc2n1CCN1CCCCC1
→ -10.3%, i, 1.38
COC(=O)C(O)(c1ccc2c(c1)CCCN2)C(F)(F)F (stereo not drawn)
→ -4.3%, i, -1.57
S=C1CN=C(c2ccccc2Cl)c2cc(Cl)ccc2N1
→ -0.6%, i, .
CCCNS(=O)(=O)c1ccc(OCC(=O)N2CCN(Cc3ccc4c(c3)OCO4)CC2)cc1
→ -1.1%, i, 1.18
c1ccc2c(CN3CCCCCCC3)c[nH]c2c1
→ -5.5%, i, 0.25
O=C(O)C1CSC(c2cccnc2)N1 (stereo not drawn)
→ 0.0%, i, 0.68
Cn1c(O)c(C=Nc2ccc(Cl)cc2)c(=O)n(C)c1=O
→ -2.5%, i, 2.19
COc1cc2[nH]c(=O)n(-c3cccc(Cl)c3)c(=O)c2cc1OC
→ 0.8%, i, -1.26
O=C1NC(=O)[C@]2(Cc3ccccc3N3CCN(c4ccccc4)CC32)C(=O)N1Cc1ccccc1 (stereo partly drawn)
→ -3.1%, i, -4.01*
O=c1[nH]c(=O)n(Cc2ccccc2)c(O)c1C=NCCN1CCNCC1
→ 1.3%, i, 1.04
c1ccc2c(CN3CCN(C4CCCCC4)CC3)c[nH]c2c1
→ -4.1%, i, -1.55
Cc1cc(NC(=O)COC(=O)c2c(C)nn(Cc3ccccc3)c2Cl)no1
→ 0.4%, i, 0.19
Cc1ccc(N2C(=O)CC(=O)NC2=O)cc1
→ 1.5%, i, -0.13
CC(=O)N1CC(=O)Nc2ccc(Cl)cc2C1c1ccc(F)cc1 (stereo not drawn)
→ 1.9%, i, -0.19
CC(Cc1ccccc1)[n+]1cc(/N=C(\N)[O-])on1 (stereo not drawn)
→ -4.9%, i, 0.23
O=C(O)C(O)(c1ccccc1)C1CCCC1 (stereo not drawn)
→ 1.8%, i, -0.36
COCCNC(=O)c1c(NC(=O)c2ccco2)n(Cc2ccccc2)c2nc3ccccc3nc12
→ -14.5%, i, 1.37

As entered above:
Cc1cc(NC(=O)COC(=O)c2c(C)nn(Cc3ccccc3)c2Cl)no1 – Hsc70: 0.4%
Nc1c(C(=O)NCc2ccco2)c2nc3ccccc3nc2n1CCN1CCCCC1 – WNV NS2B-NS3 inh: 1.38

Some of these compounds in order of SMILES length, ascending:
Order of values – Hsc70, MT1-MMP reporter, WNV NS2B-NS3 inh
S=C1CN=C(c2ccccc2Cl)c2cc(Cl)ccc2N1
→ -0.6%, i, .
COC(=O)C(O)(c1ccc2c(c1)CCCN2)C(F)(F)F (stereo not drawn)
→ -4.3%, i, -1.57
CC(=O)N1CC(=O)Nc2ccc(Cl)cc2C1c1ccc(F)cc1 (stereo not drawn)
→ 1.9%, i, -0.19
Cc1cc(NC(=O)COC(=O)c2c(C)nn(Cc3ccccc3)c2Cl)no1
→ 0.4%, i, 0.19
CCCNS(=O)(=O)c1ccc(OCC(=O)N2CCN(Cc3ccc4c(c3)OCO4)CC2)cc1
→ -1.1%, i, 1.18
O=C1NC(=O)[C@]2(Cc3ccccc3N3CCN(c4ccccc4)CC32)C(=O)N1Cc1ccccc1 (stereo partly drawn)
→ -3.1%, i, -4.01*

Next part
Order of values – Hsc70, MT1-MMP reporter, WNV NS2B-NS3 inh
Cn1c(=O)cc(SCC(=O)N2CCC3(CC2)OCCO3)c2ccc(Cl)cc21
→ 4.9%, i, 0.23
CC(=O)c1c(O)n(C2CCCCCC2)c(=O)[nH]c1=O
→ -8.1%, i, 0.79
CC(=O)N(C1=NCCCS1)c1ccccc1F
→ 1.1%, i, 0.93
O=c1c2ccccc2nc(-c2ccccc2)n1-n1cccc1
→ 6.1%, i, 0.47
Cc1ccc(C)c(CN2CCC(n3nnc4cc(F)ccc43)CC2)c1
→ -3.6%, i, 1.61
O=c1[nH]c(=O)n(-c2cccc3ccccc23)c(O)c1C=NCc1ccc2c(c1)OCO2
→ 0.6%, i, .
COC(=O)C(O)(c1c[nH]c2ccccc12)C(F)(F)F (stereo not drawn)
→ -2.6%, i, 0.2
CN(CCc1ccccc1)Cc1ccccc1[N+](=O)[O-]
→ 3.7%, i, .
COc1ccccc1OCCCn1cc(C(=O)c2ccco2)c2ccccc21
→ 1.2%, i, -0.24
COc1ccc(CN2CCN(C(=O)COc3cccc(C)c3)CC2)c(OC)c1
→ -5.3%, i, 0.86
Cc1ccc2c(c1)C1CN(C)CCC1N2C(=O)Nc1cccc(Cl)c1 (stereo not drawn)
→ -4.4%, i, .
COc1ccccc1-n1c(O)c(C=NCCN2CCNCC2)c(=O)[nH]c1=O
→ 1.7%, i, .
Cc1ccc(C)c(NC2=NCCCS2)c1
→ 6.9%, i, -0.09
Oc1ccc(CC2CC3CCN2CC3)cc1O (stereo not drawn)
→ -5.6%, i, -0.79
Cc1ccc2nc(N3CCN(C)CC3)[nH]c2c1
→ -0.1%, i, 0.32
COc1ccc(CCn2c(O)c(C=NCCCn3ccnc3)c(=O)[nH]c2=O)cc1OC
→ -0.3%, i, .
O=C(CN1CC=C(c2ccccc2)CC1)NC(=O)NCc1ccco1
→ 0.5%, i, 2.05
Cc1ccc(C2(O)CC(C)N(C)CC2C)cc1 (stereo not drawn)
→ 1.2%, i, -0.02
CC1=NOC2(C)Nc3ncnn3C(c3ccccc3)C12 (stereo not drawn)
→ -2.8%, i, 0.56
CC1(C)CN=C(Nc2nc3ccccc3s2)S1
→ 2.8%, i, 0.65

Next part.
canonical_smiles | Hsc70 | MT1-MMP reporter | WNV NS2B-NS3 inh
CCOc1ccc(C2SCC(=O)Nc3c2c(C)nn3C2CCOC(C)(C)C2)cc1 (stereo not drawn) | -4.0% | i | .
CC(=NCc1cccnc1)c1c(O)n(-c2ccccc2C)c(=O)[nH]c1=O | -2.4% | i | .
COc1cc(C2NCc3ccccc3-n3cccc32)ccc1O (stereo not drawn) | 2.8% | i | 1.01
Cc1nc2cc(C(F)(F)F)ccc2n1C1CCN(Cc2nnnn2Cc2ccc3c(c2)OCO3)CC1 | -6.2% | i | -1.55
Cn1c(O)c(C=NCCCNC2CCCCC2)c(=O)n(C)c1=O | 1.0% | i | 0.17
CCC12CN3CCN(CC(C3)C1O)C2 (stereo not drawn) | -4.5% | i | .
COC(=O)C(c1ccccc1)N1CCCCCC1 (stereo not drawn) | 4.2% | i | -0.97
O=c1[nH]c(=O)n(Cc2ccc(F)cc2)c(O)c1C=NCCN1CCCCC1 | 2.8% | i | -0.37
CC(=NCCCN1CCOCC1)c1c(O)n(Cc2ccccc2)c(=O)[nH]c1=O | 1.3% | i | 1.44
COc1ccc(C(=O)C(Cc2ccccc2)N(C)C)cc1 (stereo not drawn) | 0.1% | i | 0.34
OC(c1ccc(F)cc1)C(c1ccccc1)N1CCOCC1 (stereo not drawn) | -3.8% | i | -0.4
O=c1[nH]c(=O)n(CCC2=CCCCC2)c(O)c1C=NC1CCN(Cc2ccccc2)CC1 | -2.6% | i | -0.99
COc1ccc(C2=NCC(=O)N(CC(=O)NCc3ccco3)c3sc4c(c32)CCCC4)cc1 | 1.0% | i | -1.73
CCOC(=O)c1c(C)n(Cc2ccco2)c2c1cc(O)c1ccccc12 | 2.1% | i | .
O=C(COc1ccc(Cl)cc1)N1CCN(Cc2ccccc2)CC1 | -5.8% | i | -1.74
Oc1c(Cl)cc(Cl)cc1CN1CCN(Cc2ccccc2)CC1 | -2.0% | i | -0.01
CC12CCCCC1=[N+]([O-])CN2O (stereo not drawn) | 5.2% | i | 1.16
O=C(c1ccc2c(c1)ncn2C1CCCCC1)N1CCC2(CC1)OCCO2 | -3.1% | i | 0.67
CCCCCCn1c(O)c(C=NC2CCN(Cc3ccccc3)CC2)c(=O)[nH]c1=O | -1.4% | i | -0.00849
COc1ccc(C2NCc3ccc4c(c3-n3cccc32)OCO4)cc1O (stereo not drawn) | 0.9% | i | -0.42
O=C(c1ccc2c(=O)n(Cc3ccc4c(c3)OCO4)c(=S)[nH]c2c1)N1CCC2(CC1)OCCO2 | -1.8% | i | 0.41
CCCCOCCCn1c(N)c(C(=O)OCCOC)c2nc3ccccc3nc21 | 1.7% | i | 0.79
CNC(=O)N(C)c1nnc(C(C)(C)C)s1 | 4.0% | i | 1.55
Cn1c(O)c(C(=NCCN2CCCCC2)c2ccccc2Cl)c(=O)n(C)c1=O | 0.5% | i | 0.49
C=CCn1c(O)c(C(C)=NCCN2CCOCC2)c(=O)[nH]c1=O | -3.2% | i | -0.09
Cc1nc2ccccc2c(=O)n1-c1cccnc1 | -3.2% | i | 1.18
CCN1CCN(c2nc3c(c(=O)[nH]2)CCCC3)CC1 | -6.2% | i | 0.37
COC(=O)CCCNC(=O)CN1CC(c2ccccc2)CC1=O (stereo not drawn) | 3.2% | i | 2.51
O=C1C(c2ccccc2)=C(N2CC2)c2ccccc21 | 6.4% | i | .
Cc1cccn2c(NCC3CCCO3)c(C(C)C)nc12 (stereo not drawn) | 132.1% | i | -0.28
O=c1[nH]c(=S)n(Cc2ccc(F)cc2)c(O)c1C=NCC1CCCO1 (stereo not drawn) | 1.6% | i | .
COc1ccc2c(CCN)c[nH]c2c1 | -4.0% | i | .
CCC/C(=N\O)c1c[nH]c2ccccc12 | -1.9% | i | -0.48
O=P(/C(=N/O)N1CCCCC1)(N1CCOCC1)N1CCOCC1 | -0.4% | i | 0.12
O=C(c1ccc(CS(=O)(=O)c2ccc(Br)cc2)o1)N1CCC2(CC1)OCCO2 | -2.3% | i | 0.43
CCC(=Nc1ccc2c(c1)CCC2)c1c(O)n(C)c(=O)n(C)c1=O | -19.3% | i | 0.07
O=C(CCCCCn1c(=S)[nH]c2ccccc2c1=O)N1CCC2(CC1)OCCO2 | -7.4% | i | 1.55
O=C1CSC2(CN3CCC2CC3)N1 (stereo not drawn) | -1.6% | i | .
CCN1CCN(Cc2cc(Br)cc(Br)c2O)CC1 | 3.6% | i | .
COc1cc(CC2C(=O)N(C)C(=O)N(C)C2=O)ccc1OCc1ccccc1 | 4.2% | i | -0.95
CC[N+](C)(CC)CCCOC(=O)C(O)(c1ccccc1)C1CCCCC1 (stereo not drawn) | 1.6% | i | .
Cc1nc2cc(-c3ccc(Cl)cc3)nn2c(C)c1CCC(=O)N1CCC2(CC1)OCCO2 | -2.6% | i | -0.35
CCCCN1C(=O)NC(=O)C2(Cc3c(nc4c(C)cccn4c3=O)N3CCc4ccccc4C32)C1=O (stereo not drawn) | -12.0% | i | -0.02
CN(C)C1(c2nnnn2-c2ccc(Cl)cc2)CCCCC1 | 5.4% | i | 0.41
c1cncc(C2CC(c3cccs3)n3ncnc3N2)c1 (stereo not drawn) | 6.6% | i | 0.00532
O=C1NC(=O)C2(Cc3ccccc3N3CCCC32)C(=O)N1c1ccc(Cl)cc1 (stereo not drawn) | -11.1% | i | -0.43
CN(C)c1ccc(C(=O)c2ccc(N(C)C)cc2)cc1 | -0.8% | i | .

Source: PubChem BioAssay (several laboratories)
